Mtb hypoxia rep = Mtb hypoxia fluorescent reporter inhibition. M. tuberculosis hypoxia-regulated fluorescent reporter, fluorescence. fluorescence inhibition, % (test concentration not listed). 300,000 compounds, 0.1% hits. AID 1159583;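 active = 35 to 45% if threefold the growth effect, above 45% if 1.5-fold the growth effect; inactive = the rest, general growth blockers included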;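 also: wells of about 50 µL received 100 nL stock; 0% = vehicle wells and 100% = reference inhibitor wells; whole bacteria with a GFP reporter of the hypoxia response; strong numbers were not always called active; many hits fall short of the cut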
Sa ugtP lethal = growth inhibition of S. aureus ugtP deletion strain; 330,000 compounds, 0.54% hits; S. aureus RN4220 ugtP deletion, OD600 growth, 16 h; some inactives read as strong as hits; growth inhibition, % (no concentration beside the values);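 active = z-score under -3 and OD600 up to 0.15 on both plates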;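 also: plate controls were untreated wells for no effect and antibiotic for full effect; wells of about 80 µL received 100 nL stock; the first replicate is given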
Autofluor counter = compound fluorescence in toxin protease inhibitor counterscreen; compound autofluorescence counterscreen, microsphere flow cytometry; hits give high values; fluorescence intensity (no concentration beside the values); 360,000 compounds, 3.1% hits;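 active = at least 3 SD above the mean of all compounds, about 16000 in these data; inconclusive = too few beads counted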;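 also: 100 nL of 1 mM stock went into each well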
RN4220 kill = kills Staphylococcus aureus RN4220. S. aureus RN4220 growth, OD600, 16 h. inhibition, % (concentration not given with the values). 330,000 compounds, 0.33% hits. AID 1259311;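 active = z-score of -3 or lower and OD600 up to 0.18 on both plates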;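 also: plate controls were untreated cells for no effect and reference antibiotic for full effect; stock transfer was 100 nL into about 80 µL; one replicate is shown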
BJeLR lethal = kills HRASV12-expressing BJeLR cells. 300,000 compounds, 0.17% hits. BJeLR (HRASV12) viability, CellTiter-Glo ATP luminescence, 48 h; reference of the scale not given here. AID 1554. inhibition, % (test concentration not listed);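 active = replicate mean above 50%; inconclusive = above 50% but judged a plate artefact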;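 also: 50 nL library stock added to about 25 µL; numbers are from one replicate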
PrP UTR inh = suppresses PrP 5' UTR mRNA reporter expression. 340,000 compounds, 0.35% hits. inhibition, % (concentration not given with the values). AID 488862. cell-based PrP 5' UTR mRNA reporter, plate reader;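 active = every replicate at 50% or more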;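 also: 0 = median of the neutral control wells; tested in H4 reporter cells; numbers are from one replicate; inactives centre near -14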
Mtb hypoxia rep growth = also measured in Mtb hypoxia rep; calls as there; growth inhibition, %; measured here: M. tuberculosis growth (absorbance);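 0% = vehicle and 100% = reference antibiotic; read after six days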
The depositor's hits bear a star; ? = inconclusive; · = not tested or not shown.

smiles	Mtb hypoxia rep	Mtb hypoxia rep growth	Sa ugtP lethal	Autofluor counter	RN4220 kill	BJeLR lethal	PrP UTR inh
CCNC(=S)N(Cc1ccco1)Cc1cc2cc(OCC)ccc2[nH]c1=O	-7	-4	0	4367	10	6	6
Fc1cccc(-c2cc3nc4c(c(NCc5ccco5)n3n2)CCCC4)c1	-5	-5	-4	4462	-4.4	5	-78
O=C(NCCNC(=O)c1cnccn1)c1cccc(Cl)c1	-5	7	12	3735	5.5	10	-24
CC(C)COC(=O)C(C#N)=Cc1c[nH]c2ccccc12	4	1	-19	·	3.8	·	·
O=C(Cn1nnc2ccccc2c1=O)N[C@@H](Cc1ccccc1)C(=O)O	-2	-4	2	3487	1.2	4	-15
COc1cccc(N/C(SCc2cccc([N+](=O)[O-])c2)=C(/C#N)C(N)=O)c1	19	8	10	4646	2.2	7	-40
Nc1nc(SCC(=O)N2CCCc3ccccc32)n[nH]1	0	1	4	4752	4.6	·	-17
CN1CCC(OC(=O)c2cccc(Br)c2)CC1	0	9	-4	21018*	2.1	-3	-9
O=C(NC1CCCC1)C(=O)N(Cc1cccnc1)C(C(=O)NC1CCCC1)c1ccco1 (stereo unspecified)	7	5	15	3889	1.8	-6	-7
O=C(Nc1ccccc1O)c1cccc(S(=O)(=O)N2CCOCC2)c1	-6	0	-3	2164	-2.3	10	-14
CCCC(=O)Nc1c2c(nc3ccccc13)N(c1ccccc1)CC2	3	6	6	4578	1.0	2	0
Cc1ccc(/C=C2/C(=O)NC(=O)N(CCc3ccc(F)cc3)C2=O)o1	·	·	2	2372	2.4	5	-22
CN(C)c1ccc(P(=O)(OCc2ccccc2)C(O)c2ccncc2)cc1 (stereo unspecified)	-8	-6	-4	·	0.3	6	-9
Cc1[nH]c(=O)[nH]c(=O)c1CSc1nnc([C@@H](NC(=O)OC(C)(C)C)C(C)C)o1	25	5	3	2482	-7.1	7	-19
CC(NC(=O)/C(C#N)=C/c1cn(-c2ccccc2)nc1-c1ccc(F)cc1)c1ccccc1 (stereo unspecified)	2	2	-3	2006	1.6	1	-22
COc1cccc(NC(=S)N2CCN(S(C)(=O)=O)CC2)c1	9	4	4	5630	0.8	·	-11
O=S1(=O)N=C(Oc2ccccc2)c2ccccc21	8	8	12	23213*	7.7	·	-13
COc1ccc(OCc2n(CC(=O)OC3CC(C)CCC3C(C)C)c3ccccc3[n+]2C)cc1 (stereo unspecified)	·	·	100*	1816	101*	11	-2
COc1nccc(C(F)(F)F)c1C(=O)Nc1ccc(Cl)cc1	11	12	3	·	1.1	-1	0
O=C(Nc1cccc(S(=O)(=O)Nc2ccccc2F)c1)c1ccco1	7	0	0	3929	4.7	·	-13
N=c1c(C(=O)NC2CCCCC2)cc2c(=O)n3ccccc3nc2n1Cc1ccco1	1	-5	9	2915	3.0	2	-21
CCS(=O)(=O)N1CCN=C1SCc1ccccc1	2	-6	2	4950	0.9	10	-14
Cc1ccc(OCCNc2ccc(C(F)(F)F)cc2[N+](=O)[O-])cc1	7	7	-1	2514	8.4	2	-12
CCOc1ccccc1NC(=O)CCn1ccnc1	-9	-10	-8	4478	-0.5	1	-9
CC(=O)Nc1nc(-c2ccc3c(c2)OCO3)cs1	5	19	-2	4353	0.2	5	-46
S=C(NCc1ccccn1)Nc1ccc(Br)cc1Cl	9	6	4	4184	6.9	-1	-13
CC(=O)NCCC1CCN(c2nc3nonc3nc2N(C)Cc2ccccc2)CC1	10	9	1	4789	2.3	-2	-19
O=C(COc1coc(CN2CCN(c3ccc(F)cc3)CC2)cc1=O)NC1CCCC1	0	4	8	·	1.9	12	-27
Cc1ccccc1OCC(=O)NC(C)c1ccccc1 (stereo unspecified)	10	7	5	3581	4.8	1	-9
O=C(CCC1CCCCC1)Nc1cccc(C(=O)Nc2ccc(C(=O)O)cc2)c1	·	·	·	4061	·	-8	-23
COc1cccc(OCC(O)CN2CCN(C)CC2)c1 (stereo unspecified)	-3	-2	8	3393	-0.9	4	-14
COc1ccc(S(=O)(=O)Nc2c3ccccc3nc(=O)n2-c2ccccc2)cc1	·	·	-4	3271	10	4	2
COc1ccc(NC(=O)CSc2n[nH]c(-c3ccncc3)n2)cc1Cl	3	5	-2	3119	-3.5	·	-12
CSc1cccc(NC(=O)C(C)Sc2ccc(C)cc2)c1 (stereo unspecified)	8	7	6	15894	1.4	-8	0
COc1ccc(C2CC(=O)Oc3ccc(C(C)(C)C)cc32)cc1 (stereo unspecified)	5	7	51	2899	0.1	13	-21
CCOc1nc(-c2ccc(Cl)cc2)nc2ccccc12	4	-3	3	2655	11	-9	-4
COc1ccccc1C(=O)Nc1c2c(nn1-c1cccc(C)c1C)CS(=O)C2 (stereo unspecified)	-2	0	2	3102	1.9	5	4
CC1CCCC(C)N1C(=O)COC(=O)Cn1cnc2c1c(=O)n(C)c(=O)n2C (stereo unspecified)	1	3	0	?	3.6	-2	-21
C=CCSc1nnc(-c2cnn(-c3ccccc3)c2-n2cccc2)n1C	·	·	-10	2277	-4.6	6	-15
O=C(Nc1ncc2c(n1)-c1ccccc1CC2)c1cccc(Cl)c1	4	-5	-8	·	8.7	2	-36
Cc1ccc(C)c(C(C)NC(=O)C2CCCO2)c1 (stereo unspecified)	-7	7	3	4011	2.3	-8	-14
CC(C)(C)CN1CCNC[C@H]1Cc1ccc(O)cc1	·	·	·	3827	·	1	-15
Nc1c(Cl)cc(Cl)cc1C(=O)OCC(=O)N1CCCC1=O	0	4	8	5588	3.8	1	-13
CC(=O)c1ccc(OCC(=O)N2CCCC(N3CCN(c4ccccc4C)CC3)C2)cc1 (stereo unspecified)	7	4	5	6487	-0.5	-3	-7
O=c1nc2c(-c3ccccc3F)n[nH]n2c2ccccc12	6	14	10	4147	1.9	-3	-48

Two entries drawn at random from those above:
smiles	Mtb hypoxia rep	Mtb hypoxia rep growth	Sa ugtP lethal	Autofluor counter	RN4220 kill	BJeLR lethal	PrP UTR inh
COc1ccc(NC(=O)CSc2n[nH]c(-c3ccncc3)n2)cc1Cl	3	5	-2	3119	-3.5	·	-12
O=C(Nc1ncc2c(n1)-c1ccccc1CC2)c1cccc(Cl)c1	4	-5	-8	·	8.7	2	-36

Additional results follow:
smiles	Mtb hypoxia rep	Mtb hypoxia rep growth	Sa ugtP lethal	Autofluor counter	RN4220 kill	BJeLR lethal	PrP UTR inh
CCCNC(=O)c1cccc(C(F)(F)F)c1	·	·	2	11538	2.5	8	-30
CCOC(=O)Cc1cnc(NC(=O)CSc2nc(C)c(CC)c(=O)[nH]2)s1	-2	6	-6	5073	2.9	10	-34
CC1CC(OCC(O)CN2CCN(Cc3ccccc3)CC2)CC(C)(C)C1 (stereo unspecified)	2	2	-5	2448	-12	-1	-10
CCc1nccn1C(=O)c1cnn2c(C(F)F)cc(-c3ccc(C)cc3)nc12	3	8	0	2049	2.2	-3	-13
Cc1cccc(OCC(=O)NCC(c2ccco2)N2CCCC2)c1 (stereo unspecified)	7	7	0	?	3.8	·	-14
CCN1CCCC1CNC(=O)c1ccc(Sc2ccc(F)cc2)c([N+](=O)[O-])c1 (stereo unspecified)	6	8	-3	3959	3.7	1	-30
COc1cc(C(=O)NCCCc2nc3ccccc3n2Cc2cc(C)ccc2C)cc(OC)c1OC	4	5	-7	5909	-10.0	0	-12
CCN(CC)CC(O)Cn1c(-c2cccc(Cl)c2)nc2cc(C)c(C)cc21 (stereo unspecified)	0	4	6	4933	2.6	0	-22
CCc1c(C#N)c(=O)[nH]c(=O)n1-c1ccccc1	-6	-2	13	5790	2.3	-10	6
O=C(CSC1=NCCS1)NC1CCCCC1	·	·	-9	5376	3.5	3	-4
Cc1ccc(C(=O)Nc2ncc(C)s2)s1	1	1	0	6022	0.6	-10	-32
CCOC(=O)CCc1c(C)c2ccc(OC(C)C(=O)OCC)c(C)c2oc1=O (stereo unspecified)	2	9	0	20895*	0.1	4	-14
O=C(Nc1ccon1)Nc1ccc(Cl)cc1Cl	12	-7	0	5717	-3.1	0	-22
C/C(=N/OCC(=O)NCCCCCCNC(=O)CO/N=C(/C)c1cccs1)c1cccs1	·	·	·	2161	·	-5	-10
CCOc1cc(/C=C2\SC(N)=NC2=O)ccc1O	2	-2	2	·	3.1	-12	-13
Cn1c(=O)n(C)c2cc(C=NNC(=O)c3ccncc3)ccc21	·	·	9	·	1.1	·	·
CN(C(=O)CCl)C1CCCc2ccccc21 (stereo unspecified)	21	21	4	3175	8.0	·	9
CCOc1ccc(Br)cc1S(=O)(=O)Nc1ncn[nH]1	6	2	7	2911	7.4	-4	-11
Cc1ccsc1C(=O)OCC(=O)N1CCc2ccccc2C1	8	6	16	4762	1.8	-7	-102
Cc1ccc(S(=O)(=O)N(C)C)cc1NC(=O)C(C)OC(=O)/C=C/c1cccs1 (stereo unspecified)	12	14	0	4194	6.6	8	-6
Cc1cccc(-c2nc(Nc3ccc(N4CCOCC4)cc3)c3ccccc3n2)c1	10	8	0	1423	-6.3	-13	-9
CCc1ccc(C(=O)NC(=S)Nc2ccccc2N2CCOCC2)cc1	10	-1	29	5709	-6.2	6	-20
Cc1ccc(C(=O)CSc2nn3c(=O)c(C(C)(C)C)nnc3s2)cc1	0	1	2	9758	3.1	8	8

In the list so far, 10 contain a Cl atom:
smiles	Mtb hypoxia rep	Mtb hypoxia rep growth	Sa ugtP lethal	Autofluor counter	RN4220 kill	BJeLR lethal	PrP UTR inh
O=C(NCCNC(=O)c1cnccn1)c1cccc(Cl)c1	-5	7	12	3735	5.5	10	-24
COc1nccc(C(F)(F)F)c1C(=O)Nc1ccc(Cl)cc1	11	12	3	·	1.1	-1	0
S=C(NCc1ccccn1)Nc1ccc(Br)cc1Cl	9	6	4	4184	6.9	-1	-13
COc1ccc(NC(=O)CSc2n[nH]c(-c3ccncc3)n2)cc1Cl	3	5	-2	3119	-3.5	·	-12
CCOc1nc(-c2ccc(Cl)cc2)nc2ccccc12	4	-3	3	2655	11	-9	-4
O=C(Nc1ncc2c(n1)-c1ccccc1CC2)c1cccc(Cl)c1	4	-5	-8	·	8.7	2	-36
Nc1c(Cl)cc(Cl)cc1C(=O)OCC(=O)N1CCCC1=O	0	4	8	5588	3.8	1	-13
CCN(CC)CC(O)Cn1c(-c2cccc(Cl)c2)nc2cc(C)c(C)cc21 (stereo unspecified)	0	4	6	4933	2.6	0	-22
O=C(Nc1ccon1)Nc1ccc(Cl)cc1Cl	12	-7	0	5717	-3.1	0	-22
CN(C(=O)CCl)C1CCCc2ccccc21 (stereo unspecified)	21	21	4	3175	8.0	·	9

High-throughput results deposited in PubChem by several laboratories.

Compounds as they come. Share with any hit: about 4%.
